Rango complex inh: prevents formation of the Rango-importin beta complex. AID 540263. Rango CFP/YFP FRET sensor + importin beta, 45 min. Potency, µM (doses to about 92.2 µM), for inactives: at the highest dose inhibition of complex formation. 340,000 tested, 0.031% active. Q14974; active = rising FRET ratio curve, often small or poorly fitted; inconclusive = mostly compound fluorescence or quenching in the first reads; inactive = flat curves in all reads;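 note: potency is the fitted concentration of half-maximal effect; 0% = DMSO wells and 100% = buffer wells lacking importin beta; nearly all actives have a fitted effect of over 15% in size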
Target sequence (Q14974 whole entry, looked up): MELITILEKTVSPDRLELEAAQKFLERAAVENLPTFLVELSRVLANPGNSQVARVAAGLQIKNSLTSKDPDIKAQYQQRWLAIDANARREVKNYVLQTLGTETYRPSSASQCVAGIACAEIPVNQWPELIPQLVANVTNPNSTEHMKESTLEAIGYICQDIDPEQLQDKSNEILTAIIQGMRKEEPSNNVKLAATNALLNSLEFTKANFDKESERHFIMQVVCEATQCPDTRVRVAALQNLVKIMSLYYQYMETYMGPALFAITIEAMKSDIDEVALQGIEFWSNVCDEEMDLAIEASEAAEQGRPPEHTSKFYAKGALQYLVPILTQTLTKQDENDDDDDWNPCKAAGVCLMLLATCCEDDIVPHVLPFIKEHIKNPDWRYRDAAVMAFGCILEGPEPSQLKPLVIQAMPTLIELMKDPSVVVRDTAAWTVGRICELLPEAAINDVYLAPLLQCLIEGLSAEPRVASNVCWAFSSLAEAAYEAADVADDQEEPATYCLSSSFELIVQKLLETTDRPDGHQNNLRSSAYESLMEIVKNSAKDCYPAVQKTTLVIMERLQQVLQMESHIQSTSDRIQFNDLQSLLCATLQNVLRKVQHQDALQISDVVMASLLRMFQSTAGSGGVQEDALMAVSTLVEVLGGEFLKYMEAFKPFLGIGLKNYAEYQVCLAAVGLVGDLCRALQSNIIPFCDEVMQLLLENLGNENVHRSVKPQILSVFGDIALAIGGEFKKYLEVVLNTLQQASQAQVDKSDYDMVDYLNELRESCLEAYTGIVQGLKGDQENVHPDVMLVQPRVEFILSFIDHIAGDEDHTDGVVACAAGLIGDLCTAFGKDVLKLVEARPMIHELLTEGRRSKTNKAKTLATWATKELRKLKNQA
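Inhibition scored from the CFP 486 nm/YFP 530 nm FRET ratio 45 min after adding 0.125 microM importin beta to 50 nM Rango biosensor preincubated 5 min with compound (room temperature, PBS with DTT, Tween-20, BSA). No-importin wells as positive control.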
Rango release inh: prevents RanGTP from dissociating the Rango-importin beta complex. O95149+P62826. Biochemical FRET Rango-importin beta, RanGTP-induced dissociation. Potency, µM (doses to about 46.1 µM), for the others: at the highest dose activity change, negative = inhibition. 340,000 tested, 0.071% active. AID 540253; active means falling FRET ratio curve, often poorly fitted, with flat reads before Ran was added; inconclusive means other falling curves, or compound fluorescence or quenching; inactive means flat or rising ratio curve;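 note: potency is the fitted concentration of half-maximal effect; % of control where 0% means no effect; nearly all actives have a fitted effect of over 45% in size; -100% = wells without RanGTP and RCC1; the record marks most hits as doubtful in a second field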
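Compounds preincubate 5 min with complex of recombinant Rango and importin beta in PBS with 1 mM DTT. Ran (0.6 uM) loaded with 2 mM GTP plus 0.2 uM RCC1 starts dissociation; FRET is recorded 45 min later.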
miR-21 FLuc: raises the signal of a miR-21 reporter; HeLa miR-21 FLuc reporter, luciferase, 48 h; 340,000 tested, under 10 active; Potency, µM (titrated, usually from 38.3 µM), without a hit: at the top dose reporter change, positive = more light; active = well fitted rising curve with a large enough effect; inconclusive = small, poorly fitted or top-dose-only effect; inactive = no such curve, though single readings can be large or run the other way;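 note: % of control where 0% means no effect; miR-21 action dims this reporter so a rising signal means less miR-21 action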
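HeLa miR-21-FLuc reporter line, endogenous miR-21; 2000 cells/well in DMEM/10% FBS; compound titration up to ~40uM final, 48 h, 37 degree Celsius; luciferase detection reagent, 15 min lysis, CCD luminescence.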
GLA inh pH 4.5: blocks human alpha-galactosidase A at pH 4.5; P06280; purified enzyme, 4-MU-alpha-Gal fluorescence, pH 4.5; activity change, negative = inhibition, % at 105 µM; 230,000 tested, under 10 active; AID 1467; inconclusive = small, poorly fitted or top-dose-only inhibition, or a rising curve; inactive = flat fitted curve, though single readings scatter; no compound was filed as active;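 note: 0% = full activity with enzyme and -100% = basal without enzyme; dose as in the result columns while the protocol names 77 µM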
Starred values were filed as active, the others as inactive; ? = inconclusive; . = not tested or not shown; & = joins results of further samples. A portion of the library; rates above refer to the full screens.

Rango complex inh | SMILES | Rango release inh | GLA inh pH 4.5 | miR-21 FLuc
. | CC1(C)Cc2nc3sc(C(=O)O)c(N)c3cc2CS1 | . | 5 | -7%
-0.5% | COc1cc2c(cc1NC(=O)C(Cl)Cl)-c1ccc(NC(=O)C(Cl)Cl)cc1C2 | -17% | . | .
1.6% | O=C(NCCN1CCOCC1)c1ccc2c(c1)N(Cc1ccccc1)C(=O)c1ccccc1S2 | -9% | . | 2%
0.8% | CCCC(=O)Nc1ccc(C(=O)COC(=O)c2cc(C)oc2C)cc1 | 0% | . | .
-0.4% | Cc1oc(C(N)=O)nc1-c1ccccc1 | 0% | -23 | 0%
? | COc1cc(C(=O)N/N=C/c2ccc3c(c2)c2ccccc2n3C)ccc1O | -6% | . | 15%
-2.7% | CCOc1ccccc1CNC(=O)c1nn(C)c2c1CS(=O)(=O)c1ccccc1-2 | -1% | . | 1%&-1%
-2.4% | O=C(N[C@@H](Cc1ccc(O)cc1)C(=O)O)c1ccncc1 | -20% | . | .
5.2% | CCN(CC)S(=O)(=O)c1ccc2nc(CCl)[nH]c2c1 | 0% | 0 | -1%
-4.5% | CC(C)(C)CC(=O)Nc1ccc(S(=O)(=O)NC2=NCCCCC2)cc1 | -1% | . | .
? | CN1C2C=C3C(C#N)=C(N)C(C#N)(C#N)C(c4ccc(Br)cc4)C3C1CC2 (stereo not given) | -29% | 1 | -7%
-2.1% | O=C(/C=C/c1ccccc1)Nc1cc(NC(=O)/C=C/c2ccccc2)cc(C(=O)O)c1 | 0% | . | 1%
? | COc1ccccc1N=Nc1c(O)[nH]c2ccc(Br)cc12 | -3% | . | 0%
-1.1% | CCCSc1ncnc2c1oc1ccccc12 | 0% | -1 | -30%
2.1% | O=C(N/N=C/c1cccc(Oc2ccccc2)c1)c1ccncc1 | -10% | -7 | -7%
-0.2% | CC(=O)c1cccc(NC(=O)C2CCCN(S(=O)(=O)c3cccc4cccnc34)C2)c1 (stereo not given) | -13% | -1 | 18%
-1.4% | COc1cccc(C(=O)N/N=C(\C)c2cccc(NC(=O)c3ccc(F)cc3)c2)c1OC | 5% | . | -23%
-2.6% | O=C(NCCCN1CCCCCC1)c1ccc(N2CCCC2=O)cc1 | -5% | 5 | -8%
-0.7% | CCOC(=O)CN(Cc1ccccc1)S(=O)(=O)c1ccc(NC(C)=O)cc1 | 6% | 7 | -4%
1.3% | CC(=O)CCC(=O)OCC(=O)Nc1ccc(SC(F)F)cc1 | 9% | 3 | -11%
-3.9% | COc1ccc(CCN(C)C(=S)Nc2ccc(SC(F)F)cc2)cc1OC | 0% | . | 8%
-0.9% | Cc1cc(C)nc(N2CCC(C(=O)Nc3cccc(C(F)(F)F)c3)CC2)n1 | -11% | 1 | -1%
? | CCOc1ncccc1C(=O)OCC(=O)N(CC(C)C)C1CCS(=O)(=O)C1 (stereo not given) | 0% | 17 | 1%
0.9% | CCN(CC)CCCN(Cc1cc2cc3c(cc2[nH]c1=O)OCO3)C(=S)Nc1ccccc1OC | 15% | 4 | -6%
2.7% | COc1cccc(C(C(=O)NC2CCCC2)N(C(=O)c2ccco2)C2CC2)c1OC (stereo not given) | 3% | 11 | -5%
-1.2% | O=C(CCc1nnc2ccc(N3CCCCC3)nn12)NCc1ccco1 | 1% | . | -3%
-0.9% | Cc1nn(Cc2ccc(F)cc2)c2sc(C(=O)Nc3nccs3)cc12 | 0% | -2 | -4%
-0.2% | CCOC(=O)c1c(NC=O)sc2c1CCC2 | -1% | 7 | -14%
0.5% | Clc1ccc(OCCOCCN2CCc3ccccc3C2)c(Cl)c1 | 1% | -1 | 1%
-1.9% | CCn1c(=O)n(CC(=O)Nc2cc(OC)ccc2OC)c(=O)c2ccccc21 | 1% | -1 | -9%

3 compounds from above, sorted by molar mass, lowest first.
Rango complex inh | SMILES | Rango release inh | GLA inh pH 4.5 | miR-21 FLuc
5.2% | CCN(CC)S(=O)(=O)c1ccc2nc(CCl)[nH]c2c1 | 0% | 0 | -1%
0.8% | CCCC(=O)Nc1ccc(C(=O)COC(=O)c2cc(C)oc2C)cc1 | 0% | . | .
-2.7% | CCOc1ccccc1CNC(=O)c1nn(C)c2c1CS(=O)(=O)c1ccccc1-2 | -1% | . | 1%&-1%

Given with values under each structure: 2 of the compounds above
Second line of a record – Rango complex inh	Rango release inh	GLA inh pH 4.5	miR-21 FLuc
> Cc1nn(Cc2ccc(F)cc2)c2sc(C(=O)Nc3nccs3)cc12
→ -0.9%	0%	-2	-4%
> CCOc1ccccc1CNC(=O)c1nn(C)c2c1CS(=O)(=O)c1ccccc1-2
→ -2.7%	-1%	.	1%&-1%

(further entries)
Rango complex inh | SMILES | Rango release inh | GLA inh pH 4.5 | miR-21 FLuc
0.4% | Cc1cccc(C(=O)N(CC(=O)Nc2sc(C)c(C)c2C(N)=O)C2CCCC2)c1 | -9% | . | 14%
? | Clc1nc2c(-c3ccccc3)nnn2c2ccccc12 | ? | 0 | -28%
-1.4% | C/C(=C\C(=O)c1ncc(C(F)(F)F)cc1Cl)N(C)C | -4% | 6 | 0%
-0.1% | CCCC(=O)NC(=S)Nc1cccc(Cl)c1N1CCCCC1 | 10% | 0 | 4%
0.1% | O=C(O)CSCCCC(=O)Nc1ccc(Br)cc1 | ? | 0 | 0%
-3.1% | NC(=O)C1=C[C@@H](c2ccc(C(F)(F)F)cc2)C[C@@H](OCc2ccc(CO)cc2)O1 | -9% | -2 | -4%
2.5% | COC(=O)C[C@H]1c2cc(F)ccc2S(=O)(=O)N1c1ccc(N(C)C)cc1 | 0% | . | .
-0.1% | CCn1cc(-c2cc(C(=O)O)c3ccccc3n2)c(C)n1 | -6% | 4 | 3%
? | CCCCCCc1cc2cc(/C(N)=N/NC(=O)c3ccncc3)c(=O)oc2cc1O | ? | . | .
-0.6% | Cc1cc(C)cc(NC(=O)C2C3C=CC4(O3)C2C(=O)N(CCCN2CCCC2)C4C(=O)NC2CCCC(C)C2C)c1 (stereo not given) | -11% | . | 0%
-0.6% | CCN(CC)CCCN1C(=O)c2oc3ccccc3c(=O)c2C1c1cc(OC)ccc1OC (stereo not given) | -16% | -5 | -5%
? | Cc1ccc(C(=O)c2cc([N+](=O)[O-])ccc2N2CCCCC2)c(C)c1 | -9% | 3 | 16%
2.1% | Fc1ccccc1Cc1noc(CN2CCN(Cc3ccc4c(c3)OCO4)CC2)n1 | 8% | 4 | -4%
-2.4% | CCOC(=O)c1ccc(NC(=S)N(CCCN2CCCCCC2)Cc2ccco2)cc1 | -9% | -7 | -11%
-0.8% | Cc1ccc(NC(=O)CN(C)Cc2c(O)ccc3ccccc23)cc1 | 10% | . | -1%
-2.8% | CN(C)c1ccc(C(CNS(=O)(=O)c2ccc3ccccc3c2)c2c[nH]c3ccccc23)cc1 (stereo not given) | -9% | -2 | -29%
0.8% | CCOC(=O)Cc1cc(=O)[nH]c(/N=C(\N)Nc2ccc(OC)cc2)n1 | -11% | 2 | -1%
0.2% | COc1ccc([C@H]2CC(=O)C=C(c3ccc(NC(C)=O)cc3)C2)cc1OC | 7% | . | .

Whole records from above. Order of screens: Rango complex inh | Rango release inh | GLA inh pH 4.5 | miR-21 FLuc
Fc1ccccc1Cc1noc(CN2CCN(Cc3ccc4c(c3)OCO4)CC2)n1 is listed with 2.1% | 8% | 4 | -4%
NC(=O)C1=C[C@@H](c2ccc(C(F)(F)F)cc2)C[C@@H](OCc2ccc(CO)cc2)O1 is listed with -3.1% | -9% | -2 | -4%

Screening data: PubChem, National Center for Advancing Translational Sciences (NCATS)
